Assay outcomes deposited in PubChem by National Center for Advancing Translational Sciences (NCATS).
VDR inh = blocks the human vitamin D receptor. P11473. VDR-SRC2-3 peptide fluorescence polarization, 2 h. Potency, µM, for the others: max response, negative = inhibition, most hits filed as inhibitors. 400,000 compounds, 0.93% hits. AID 504847; active means well fitted inhibition curve with a large enough effect; inconclusive means small, poorly fitted or top-dose-only effect, or another doubt; inactive means no such curve, though single readings can be large or run the other way; further: series mostly up to about 120 µM
Target sequence (P11473 whole entry, looked up): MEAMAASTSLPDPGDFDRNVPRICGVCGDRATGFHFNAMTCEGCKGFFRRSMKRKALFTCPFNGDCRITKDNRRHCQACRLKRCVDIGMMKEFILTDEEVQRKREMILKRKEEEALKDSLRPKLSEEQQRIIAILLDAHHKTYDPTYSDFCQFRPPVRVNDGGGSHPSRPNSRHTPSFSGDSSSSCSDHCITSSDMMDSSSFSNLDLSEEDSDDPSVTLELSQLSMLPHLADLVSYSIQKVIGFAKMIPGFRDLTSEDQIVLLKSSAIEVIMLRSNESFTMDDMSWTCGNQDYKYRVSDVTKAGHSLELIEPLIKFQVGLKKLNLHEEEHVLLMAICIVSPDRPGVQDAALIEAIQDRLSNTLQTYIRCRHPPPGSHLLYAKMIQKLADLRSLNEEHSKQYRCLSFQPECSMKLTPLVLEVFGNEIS
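Compounds are added to VDR with labelled SRC2-3 coactivator peptide and held 2 h at room temperature. Inhibition of the VDR–peptide interaction is then read as a change in fluorescence polarization.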
Active calls of the source: *; ? = inconclusive; & = joins results of further samples. On the % scale 0 is the no-effect control and ±100 the full control effect; potency means the concentration at half of the fitted maximal effect.

SMILES | VDR inh
CCc1cccc(C)c1NC(=O)c1cnn(-c2ccc(F)cc2)c1-n1cccc1 | 11.7%
Cc1cc(C)n(C(=O)c2cccc(S(=O)(=O)N3CCOCC3)c2)n1 | -16.7%
Cc1cccc(N2C(=O)CC(Sc3nccc(C)n3)C2=O)c1 (stereo unspecified) | -5.1%
CCOC(=O)N1CC(=O)Nc2ccc(Br)cc2C1c1ccccc1 (stereo unspecified) | -12.3%
O=[N+]([O-])c1ccccc1C=NNC(=S)NN=Cc1ccccc1[N+](=O)[O-] | -4.4%
COCCN(C(=O)COC(=O)c1nc(Cl)ccc1Cl)c1c(N)n(Cc2ccccc2)c(=O)[nH]c1=O | -7.2%
Cc1cc(C)cc(NC(=O)CN(C)S(=O)(=O)c2cnc[nH]2)c1 | 12.8%
CCn1cc(C(=O)N(C)Cc2ccccc2)c(=O)c2cc(S(=O)(=O)N3CCc4ccccc4C3)ccc21 | -14.9%
COc1ccc(NC(=O)[C@@H](NC(=O)c2ccccc2)C(C)C)cc1S(=O)(=O)N1CCCCC1 | 10.9%
Cc1c(C(=O)NCCc2ccc(Cl)cc2)sc2nc3n(c(=O)c12)CCC3 | 14.6%
O=S(=O)(NCCOCCNS(=O)(=O)c1ccccc1)c1ccccc1 | -12.8%
O=C(O)c1ccc(N(Cc2ccccc2)S(=O)(=O)c2ccccc2)cc1 | 0.3%&0.7%
Cc1ccc(NC(=O)c2ccc(-c3cccc(Cl)c3C)o2)cc1 | 3.2%
Cc1ccc(Cn2c(C(=O)O)c(CNC3CCCCC3)c3ccc(C)cc32)cc1 | 6.3%
CC(C)(C)NC(=O)C(c1ccc(-c2ccccc2)cc1)N(C[C@H]1CC[C@@H]([C@@H]2CC[C@H](CO)O2)O1)C(=O)c1ccccc1F (stereo partly specified) | 27.3%
Cc1c(C(=O)Nc2ccc(F)c(F)c2)oc2ccc(S(=O)(=O)N(C)C3CCCCC3)cc12 | 8.5%
CN(Cc1cnn(C)c1)C(=O)C1CCC(=O)N(Cc2cccc(F)c2)C1 (stereo unspecified) | 0.7%
CC(=O)Nc1ccc(S(=O)(=O)Nc2ccccc2C(=O)N2CCCC2)cc1 | -15.7%
O=C(CSc1ccc2ccccc2c1)NC1CCCc2ccccc21 (stereo unspecified) | 10.6%
CCC(=O)c1ccc(OCC(=O)OCC(=O)NCC2CCCO2)cc1 (stereo unspecified) | 21.5%

Entries listed so far with an NH in an aromatic ring (2):
SMILES | VDR inh
COCCN(C(=O)COC(=O)c1nc(Cl)ccc1Cl)c1c(N)n(Cc2ccccc2)c(=O)[nH]c1=O | -7.2%
Cc1cc(C)cc(NC(=O)CN(C)S(=O)(=O)c2cnc[nH]2)c1 | 12.8%

Continuation:
SMILES | VDR inh
Cn1c(=O)c2c(SCc3cccnc3)nc(CC(C)(C)C)nc2n(C)c1=O | -23.4%
CCC(C)c1ccccc1OCC(=O)Nc1ccc(S(=O)(=O)Nc2cc(C)on2)cc1 (stereo unspecified) | -13.1%
CC(=O)Nc1ccc(S(=O)(=O)NC2C3(C)CCC(C3)C2(C)C)cc1 (stereo unspecified) | -13.4%
CC(=O)CCc1c(C)c2cccc(C)c2[nH]c1=O | -16.3%
CCC(=O)Nc1ccc(C(=O)CSc2nnc(-c3ccccc3F)n2C2CC2)cc1 | -12.5%
NC(=O)C1(N2CCCCC2)CCN(C(=S)NCCc2ccccc2)CC1 | 1.7%
O=C(NCc1ccco1)c1ccc(Br)c(S(=O)(=O)N2CCCCC2)c1 | -26.7%
COc1ccccc1/C=C/C(=O)/C=C/c1ccccc1O | -26.9%
COCc1nnc(NC(=O)c2cc3ccccc3o2)s1 | 12.2%
COc1ccc(CCNC(=O)c2ccc(NC3=NC4CS(=O)(=O)CC4S3)cc2)cc1OC (stereo unspecified) | -8.4%
Cc1nn(C)c(Oc2ccccc2)c1CCNC(=O)C(C)(C)C | -12.1%
COc1cccc(N(CC(=O)NC2CCCCC2)C(=O)CCCC(=O)Nc2ccccn2)c1 | -0.2%
Cc1cc(C)n2cc(CSc3nnc(N)s3)nc2n1 | -12.2%
CCN1/C(=C\C=C2\C(=O)N(c3ccccc3)C(=S)N2C)Sc2ccccc21 | 4.9%
Cc1ccccc1NC(=O)C(C#N)Cc1cccnc1 (stereo unspecified) | 2.9%
COc1ccc(C(=O)NCC(c2cccs2)S(=O)(=O)c2ccc(C)cc2)cc1 (stereo unspecified) | -1.5%
Cc1ccc(C)c(NC(=O)CCCCCCCCCCC2COCCO2)c1 (stereo unspecified) | -7.8%
CCOC(=O)CN/C=C(\C#N)c1ccccc1 | -1.1%
COc1ccccc1C(=O)Nc1nc2ccccc2[nH]1 | ?
COc1ccc2c(c1)c1c(c(=O)n(-c3cccc(Cl)c3)c(=O)n1CC(=O)NCC1CCCO1)n2C (stereo unspecified) | 8.0%
O=C(NCc1cccs1)c1cc(S(=O)(=O)N2CCOCC2)c(Cl)cc1Cl | -13.8%
Cc1nc(NC(=O)CCc2ccccc2)ccc1Br | 6.5%
Cc1sc(-c2ccccn2)nc1OC(=O)c1ccc(F)cc1F | 13.4%
CC(=O)NC(CC(=O)N(Cc1ccccc1)c1ccc(C)cc1)c1ccccc1 (stereo unspecified) | 2.6%
O=C(NCc1ccccn1)c1ccc(Cl)c(S(=O)(=O)N2CCCCC2)c1 | 11.3%
CCN1CCN(CCOc2ccc(Br)cc2C)CC1 | ?
COc1cc(C(=O)O/N=C(\N)c2cccc([N+](=O)[O-])c2)cc(OC)c1OC | 5.2%
O=c1ccc2c([nH]1)CCCCCCCCCC2 | -0.7%
O=[N+]([O-])c1cc(-c2ncccn2)c([N+](=O)[O-])s1 | 35.5µM*
O=C(CN1CCN(Cc2ccccc2)CC1)c1ccccc1 | 17.8%
COC(=O)c1scc(C)c1N1C(=O)c2ccccc2C1=O | 5.6%
COc1ccc(OC)c(-c2nc(CN(C)C(C)c3ccncn3)c(C)o2)c1 (stereo unspecified) | 0.1%
COc1ccc(CCNC(=O)CCc2c(C)c3cc4c(C)coc4cc3oc2=O)cc1 | 17.8%
COc1ccccc1C(=O)OCc1cc(=O)n2nc(C3CC3)sc2n1 | 5.9%
COC(=O)Cn1c(C(=O)N2CCCC2)cc2c1C[C@H]1CN(C(=O)c3ccccc3)[C@@](Cc3ccc(F)cc3)(C(=O)OC)[C@@H]21 | -4.1%
CCO[C@H]1OC(C(=O)Nc2ccccc2)=C[C@@H](c2csc3ccccc23)[C@@H]1CCCO | -8.5%
COc1ccc(Cl)c(NC(=O)C/C(C)=N/NC(=O)CCc2ccccc2)c1 | -4.7%
Cc1nc2c(-c3ccc(F)cc3)c(C)nn2c(C)c1CCC(=O)NCc1cccc(Cl)c1 | -12.3%
Cc1nc2ccc(S(=O)(=O)c3ccc4nc(C)[nH]c4c3)cc2[nH]1 | 1.6%
C[C@H](CO)N1C[C@H](C)[C@@H](CN(C)S(=O)(=O)c2ccccc2)Oc2ccc(NC(=O)C3CCCCC3)cc2C1=O | -17.9%
CCOC(=O)c1ccc(NC(=O)C2Cc3ccccc3C(=O)O2)cc1 (stereo unspecified) | 5.7%
CCCCCn1cnc2c(=S)nc(N)[nH]c21 | -27.1%
O=CC1=C(c2ccccc2)Oc2ccccc2O1 | -10.2%
COc1cccc(-c2nc(OC(C)C)c3ccccc3n2)c1 | -10.0%
CCc1ccc2nc(Nc3ncc(C(C)=O)c(C)n3)nc(C)c2c1 | -14.6%
c1ccc2c(c1)ncn2-c1ccc(-c2ccnc(-c3ccncc3)n2)cc1 | -12.4%
CCOc1ccc2nc(NC(=O)C(NS(=O)(=O)c3cccs3)C(C)C)sc2c1 (stereo unspecified) | 28.7%
Cc1ccc2c(N)c(C#N)sc2n1 | -9.5%
O=C(Nc1ccc(N2CCOCC2)cc1)C1CCCN(S(=O)(=O)c2ccccc2)C1 (stereo unspecified) | -6.0%
O=C(O)/C=C/C(=O)Nc1ccccc1C(=O)Nc1ccccc1 | -14.9%
Cc1nonc1NC(=O)CSc1ccccn1 | -0.9%
Cc1cc(=O)oc2ccc(OC(C)C(=O)O)cc12 (stereo unspecified) | -0.1%
CC(=O)N(C)c1ccc(NC(=O)c2cnn(C)c2)cc1 | -3.4%
Cc1oc(-c2ccc(Cl)cc2)nc1CS(=O)CC(=O)NCCCN1CC(C)CC(C)C1 (stereo unspecified) | -13.9%
CC(C)NC(=O)N(C)C[C@H]1Oc2ccc(NC(=O)CCN3CCOCC3)cc2C(=O)N([C@H](C)CO)C[C@@H]1C | -4.8%
CC(OC(=O)c1ccco1)C(=O)NC1CCCCC1 (stereo unspecified) | -2.0%
COc1ccc(C(=O)N2CCOC2CNC(=O)C(=O)NCc2ccc(F)cc2)cc1 (stereo unspecified) | 3.0%
COc1nc(N=C(N)N)nc2c(C)cccc12 | 4.7%
CN(C)CCCNC(=O)CC1C[C@H](C(=O)N2CCOCC2)[C@@]2(CCC3CCCC3)c3[nH]c4ccccc4c3CCN2C1=O (stereo partly specified) | -15.5%
COc1ccc(-n2ccnc2SCC(=O)Nc2cc(C)on2)cc1 | 9.9%

3 compounds already listed, arranged by molecular weight, rising.
SMILES | VDR inh
COc1nc(N=C(N)N)nc2c(C)cccc12 | 4.7%
CC(OC(=O)c1ccco1)C(=O)NC1CCCCC1 (stereo unspecified) | -2.0%
O=C(Nc1ccc(N2CCOCC2)cc1)C1CCCN(S(=O)(=O)c2ccccc2)C1 (stereo unspecified) | -6.0%

The results go on.
SMILES | VDR inh
CSCCC(NC(=O)c1cc(C(C)(C)C)oc1C)C(=O)O (stereo unspecified) | -6.6%
Cc1c(C(=O)N(C)C)sc(NC(=O)c2cccc([N+](=O)[O-])c2)c1C#N | 6.4%
O=C(O)c1cc(-n2c(/C=C\c3ccc(F)cc3)nc3ccccc3c2=O)ccc1Cl | 15.9%
CCOc1ccc(NC2OC(CO)C(O)C(O)C2O)c([N+](=O)[O-])c1 (stereo unspecified) | -9.6%
Cc1c(O[C@@H]2O[C@H](CO)[C@@H](O)[C@H](O)[C@H]2O)ccc2c1oc(=O)c1ccccc12 | -13.7%
CN(Cc1ccccc1)Cc1nc2c(c(=O)n(C)c(=O)n2C)n1Cc1ccc(Cl)cc1 | -6.1%
CCOC(=O)c1c(C)nc2sc3c(=O)n(-c4ccc(C(C)=O)cc4)nnc3c2c1-c1ccc(OC)cc1 | -11.8%
O=C(O)c1ccc(CS(=O)(=O)Cc2ccccc2F)o1 | 3.1%
CN(C)S(=O)(=O)c1cccc(NC(=O)CO/N=C(\N)c2ccccc2)c1 | -4.3%
CCN(CC)S(=O)(=O)c1ccc2oc(SCC(=O)Nc3cc(C)on3)nc2c1 | ?
CCN1C(=O)[C@@H]2[C@@H](c3ccc(-c4ccccc4)cc3)N3CCC[C@@]3(C(=O)OC)[C@@H]2C1=O | 2.2%
O=C(CN1CCN(c2ccc(F)cc2)CC1)c1cccs1 | -12.6%
O=C(O)c1ccc(NC(=S)NC(=O)C(c2ccccc2)c2ccccc2)cc1 | -1.0%
Nc1[nH]c(=O)[nH]c(=O)c1N=Nc1cccc(Cl)c1 | -1.1%
N#C/C(=C\c1c(Oc2ccc(F)cc2)nc2ccccn2c1=O)c1nc2ccccc2s1 | ?
CCN(CC)C(=O)c1sc(NC(=S)N2CCN(C(=O)C3CCCO3)CC2)c(C(=O)OC)c1C (stereo unspecified) | -4.8%
CN(c1cccc(NC(=O)c2ccc(Cl)c(S(=O)(=O)N3CCOCC3)c2)c1)S(C)(=O)=O | 17.8%
COc1ccc(N(CCC(=O)Nc2ccccc2F)S(=O)(=O)c2ccc(C)cc2C)cc1 | -5.5%
CC(=O)CSc1ncnc2c1oc1ccccc12 | 26.9%
CCOC(=O)C(NC(=O)Nc1ccc(Cl)cn1)(Oc1ccccc1)C(F)(F)F (stereo unspecified) | -8.2%

Reprinted from the part before: three entries; new compounds follow.
SMILES | VDR inh
COc1ccc(N(CCC(=O)Nc2ccccc2F)S(=O)(=O)c2ccc(C)cc2C)cc1 | -5.5%
CC(=O)CSc1ncnc2c1oc1ccccc12 | 26.9%
CCOC(=O)C(NC(=O)Nc1ccc(Cl)cn1)(Oc1ccccc1)C(F)(F)F (stereo unspecified) | -8.2%
O=S(=O)(c1cccs1)N1CN(Cc2cccs2)c2nc3ccccc3nc21 | 5.1%
COc1ccc(OC)c(NC(=O)C2CCN(S(=O)(=O)c3c(C)noc3/C=C/c3ccc(C)cc3)CC2)c1 | 9.7%
CC(=O)NC1(C(Cl)(Cl)Cl)Oc2ccccc2O1 | -7.3%
CCOC(=O)C1CCN(C(=O)C2CCN(S(=O)(=O)N3CCCC3)CC2)CC1 | 4.8%
O=C(COc1ccc(S(=O)(=O)N2CCCC2)cc1)N1CCCC1 | 10.1%
CCc1cccc(NC(=O)CC2Oc3ccccc3NC2=O)c1 (stereo unspecified) | -15.8%
NC(=O)CSc1nnc(COc2ccccc2)n1N | -17.7%
Nc1cccc(/C=C/c2ccncc2)c1 | -15.1%
Cc1ccc(S(=O)(=O)Nc2ccc(Cl)cn2)cc1 | -19.5%
CCCc1nnc(NC(=O)Cn2c(=O)oc3cc(Br)ccc32)s1 | -12.0%
CCC1(C)OC(=O)NN(c2ccc(C)cc2)C1(C)O (stereo unspecified) | 10.2%
O=[N+]([O-])c1ccccc1CCc1cnc(Cl)s1 | 14.5%
COc1ccc2sc(N(CCCN(C)C)C(=O)c3ccc(S(=O)(=O)N4CCCc5ccccc54)cc3)nc2c1 | ?
COc1ccc(N2CCN(C(CNC(=O)c3ccc(C)cc3)c3ccc4c(c3)OCO4)CC2)cc1 (stereo unspecified) | 6.8%
Cc1cccc(OCCn2cnc(Cl)c2Cl)c1 | 0.5%
O=c1[nH]c(=S)[nH]c2nc(-c3cccs3)cc(C(F)(F)F)c12 | -2.3%
Cc1ccc(C)c(S(=O)(=O)N2CCCC2CNC(=O)C(=O)NCc2ccco2)c1 (stereo unspecified) | -16.6%
O=C(CNC(=O)c1cccc([N+](=O)[O-])c1)OCCCC(=O)c1ccc(F)cc1 | 15.1%

A portion of the library, so the mix of outcomes need not match the whole.
